Source: PubChem
RanGTP-Imp inh: inhibitors of RanGTP-importin-beta interaction, primary screen, biochemical, FRET, CFP-Ran, YFP-importin-beta, homogeneous | inhibition, % (concentration not given with the values) | cell-free CFP-Ran/YFP-importin-beta FRET ratio | hit rate 1.1% among 300,000;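 active = most replicates above 15%; inconclusive = exactly half above 15%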;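 note: 0% = DMSO wells and 100% = Ran loaded with GDP instead of GTP; wells of about 40 µL received 100 nL stock; the first replicate is given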
A1 inh: caspase 3/7 activation in MEF A1-2A-BIM cells, primary screen, A1 inhibitor project, cell-based, luminescence, HTS | Caspase-Glo 3/7 luminescence, 3 h; percent of clofoctol response, vehicle zero | caspase activation, % (concentration not given with the values) | hit rate 0.066% among 330,000 | AID 2462, 2010;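 active = over half of replicate activation scores above 10%, or exactly half above 10 with the replicate mean above 10; inconclusive = replicate mean below 10 yet half the replicates above 10; inactive = over half of replicates below 10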;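 note: wells of about 30 µL received 50 nL stock; many hits fall short of the cut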
Beta2AR agonist: beta2AR agonists driving receptor internalization, primary screen, cell-based, FAP fluorogen, flow cytometry. Beta-2 adrenergic receptor (Homo sapiens), P07550. Am2.2-beta2AR cells; reference of the scale not given here. response, % (test concentration not listed). hit rate 0.43% among 340,000;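 active = response above a set limit, near 3 SD of response in nonfluorescent compounds, cut at about 42% in these data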;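 note: stock transfer was 100 nL into about 11 µL; a reference agonist was the positive control; negative values mostly stem from fluorescent compounds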
Target sequence (P07550 whole entry, looked up): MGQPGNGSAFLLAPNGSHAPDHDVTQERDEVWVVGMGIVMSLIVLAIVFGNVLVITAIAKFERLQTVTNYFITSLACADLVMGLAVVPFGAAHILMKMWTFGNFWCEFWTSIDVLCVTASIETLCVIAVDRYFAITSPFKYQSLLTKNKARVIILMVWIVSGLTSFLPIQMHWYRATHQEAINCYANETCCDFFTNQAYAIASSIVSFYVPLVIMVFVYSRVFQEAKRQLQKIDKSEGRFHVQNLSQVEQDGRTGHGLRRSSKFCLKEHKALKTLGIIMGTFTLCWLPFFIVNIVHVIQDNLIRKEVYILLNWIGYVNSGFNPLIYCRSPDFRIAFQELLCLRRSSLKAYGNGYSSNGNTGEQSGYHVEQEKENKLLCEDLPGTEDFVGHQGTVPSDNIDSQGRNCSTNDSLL
T cruzi repl: inhibitors of intracellular T. cruzi growth, primary screen, luminescence, NIH3T3 host cells | T. cruzi beta-gal in NIH3T3, 90 h | inhibition, % (no concentration beside the values) | hit rate 1.4% among 300,000;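 active = mean inhibition across valid replicates above about 55%, limit read from the data; inconclusive = mean below that limit but half or more replicates reach it; inactive = mean below it, under half of replicates reach it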;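 note: signal also drops with host cell toxicity which is not excluded here; 0% = plate median of DMSO wells and 100% = zero luminescence signal; higher percent means less beta-gal luminescence so fewer parasites; stock transfer was 50 nL into about 50 µL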
UCH37 DUB inh: inhibitors of human UCH37 deubiquitinase, primary screen, biochemical, Ub-AMC cleavage, fluorescence; Ubiquitin carboxyl-terminal hydrolase isozyme L5 (Homo sapiens), Q9Y5K5; purified proteasome/UCH37; AID 588478, 2011; inhibition, % (concentration not given with the values); hit rate 0.33% among 330,000;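 active = mean of two replicates above 20%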;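 note: 0% = compound-free wells with enzyme and 100% = wells lacking proteasome; stock transfer was 100 nL into about 20 µL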
Target sequence (Q9Y5K5 whole entry, looked up): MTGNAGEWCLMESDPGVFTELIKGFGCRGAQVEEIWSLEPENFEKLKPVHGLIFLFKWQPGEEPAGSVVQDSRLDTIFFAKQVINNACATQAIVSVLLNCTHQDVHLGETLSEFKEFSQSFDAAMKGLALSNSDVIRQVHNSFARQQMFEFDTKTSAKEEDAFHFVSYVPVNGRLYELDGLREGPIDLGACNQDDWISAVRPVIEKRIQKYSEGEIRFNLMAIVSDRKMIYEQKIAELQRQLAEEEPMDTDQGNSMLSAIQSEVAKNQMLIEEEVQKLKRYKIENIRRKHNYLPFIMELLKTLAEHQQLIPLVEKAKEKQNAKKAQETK
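Material: human UCH37 enzyme supplied as purified proteasome complex. Measure: % inhibition of Ub-AMC cleavage fluorescence. Medium: pH 7.4 Tris-HCl (50 mM) with ovalbumin, ATP-MgCl2, DTT. Times: 30 min preincubation with enzyme, 25 min cleavage at room temperature. Detection: AMC fluorescence intensity at 355/460 nm.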
LANA-H2A inh: blockers of LANA interaction with H2A/H2B – biochemical, FP readout, HTS, primary screen; inhibition, % (test concentration not listed); Protein LANA1 (Human herpesvirus 8 type P (isolate GK18)), Q9QR71; hit rate 0.6% among 320,000; cell-free LANA-H2A/H2B peptide, fluorescence polarization; AID 2629, 2010; in the data active = inhibition mostly above about 10%, no sharp cut-off; inactive = mostly below about 6.7%;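 note: stock transfer was 7.5 nL into about 10 µL; 0% = median of vehicle wells and 100% = median of positive control wells; one replicate is shown; the record names a cut of 25% in any replicate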
Beta apoptosis: inhibitors of cytokine-induced beta cell apoptosis, primary screen, luminescence | protection from apoptosis, % (concentration not given with the values) | INS-1E cytokine-induced death, ATP luminescence, 48 h; percent of positive-control rescue, neutral wells zero | hit rate 0.8% among 300,000 | AID 435005, 2010;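 active = all replicates at 75% or more, or half of them and the mean; inconclusive = half reach 75% but not the mean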;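 note: 0% = cytokine-treated negative control wells and 100% = positive control rescue; higher means more ATP so stronger rescue from cytokine killing; wells of about 40 µL received 100 nL stock; the first replicate is given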
Calb FLC: C. albicans growth inhibition with fluconazole, primary screen, CaCi-2 strain, Alamar Blue fluorescence; C. albicans CaCi-2 (fluconazole-resistant clinical isolate) + fluconazole, 48 h; growth inhibition, % (no concentration beside the values); hit rate 0.57% among 300,000;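 active = most replicates above 75%; inconclusive = exactly half above 75%; inactive = most below 75%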;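 note: all wells also contain fluconazole at 8 µg/ml as a sub-toxic cotreatment; 0% = median of DMSO wells and 100% = median of geldanamycin control wells; wells of about 8 µL received 7.5 nL stock; the first replicate is given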
* = called active by the depositor; i = inactive; ? = inconclusive; nt = not tested or not shown. Some of the compounds tested; rates above refer to the full screens.

Start of the data: the first 2 compounds, to show the layout:
SMILES	RanGTP-Imp inh	A1 inh	Beta2AR agonist	T cruzi repl	UCH37 DUB inh	LANA-H2A inh	Beta apoptosis	Calb FLC
CCC(C)C1N=C(c2ccccc2)c2cc(Cl)ccc2N(CC(=O)NCc2ccco2)C1=O (configuration not stated)	?	-0.2	7	20	7.0	-3.1	1	2
Cc1ccsc1C(=O)C1CCCN(Cc2ccn[nH]2)C1 (configuration not stated)	1.4	-0.2	-6	-5	-1.9	1.0	2	4

The list itself, repeating the preview:
SMILES	RanGTP-Imp inh	A1 inh	Beta2AR agonist	T cruzi repl	UCH37 DUB inh	LANA-H2A inh	Beta apoptosis	Calb FLC
CCC(C)C1N=C(c2ccccc2)c2cc(Cl)ccc2N(CC(=O)NCc2ccco2)C1=O (configuration not stated)	?	-0.2	7	20	7.0	-3.1	1	2
Cc1ccsc1C(=O)C1CCCN(Cc2ccn[nH]2)C1 (configuration not stated)	1.4	-0.2	-6	-5	-1.9	1.0	2	4
COc1ccc2c(c1)c(C(=O)CN1CCC3(CC1)OCCO3)c(C)n2Cc1ccccc1	4.1	0.4	-1	4	0.5	-2.0	6	5
CN=C1CN(O)C(c2ccccc2)=c2cc(Cl)ccc2=N1	3.8	-0.2	-11	-10	0.6	0.9	5	nt
O=c1[nH]c(=O)n(-c2ccc(F)cc2)c(O)c1/C=C1\C=Nc2ccccc21	1.4	1.5	-6	-14	nt	11	-7	1
O=c1cccc2n1CC1CC2CN(CC(O)CN2CC3CC(C2)c2cccc(=O)n2C3)C1 (configuration not stated)	4.3	0.6	-15	-7	0.2	1.2	-7	-8
CCCCCC(=O)N[C@@H](c1ccccc1)[C@@H](O)C(=O)O[C@H]1C[C@@]2(O)[C@@H](OC(=O)c3ccccc3)C3[C@](C)(C(=O)[C@H](O)C(=C1C)C2(C)C)[C@@H](OC1OCC(O)C(O)C1O)C[C@H]1OC[C@@]31OC(C)=O (some centres not stated)	?	0.7	-15	16	1.8	-0.2	7	-1
CC(C(=O)c1cn(C)c2ccccc12)c1ccccc1 (configuration not stated)	0.9	-0.1	1	-12	3.5	-3.1	8	6
COc1ccc(CCNCc2c(OC)ccc3ccccc23)cc1	0.2	-0.8	3	32	1.0	-1.5	10	-13
COCCNC(=O)c1ccc(N2CC3CC(C2)c2cccc(=O)n2C3)c([N+](=O)[O-])c1 (configuration not stated)	-5.0	0.5	0	-5	8.2	-1.2	0	23
CN1CCN(c2ccc([N+](=O)[O-])c(N)c2)CC1	5.3	1.3	2	15	10	2.2	1	7
Fc1ccccc1N1CCN(Cc2ccc3c(c2)OCO3)CC1	nt	0.0	2	nt	1.7	-0.1	-11	nt
Cn1c(=O)n(C)c2cc([N+](=O)[O-])c(N3CCNCC3)cc21	6.1	0.4	0	-15	6.4	-2.6	-1	-5
CCN(CC)P(=O)(c1n(CC)cc[n+]1CC)N(CC)CC	-2.2	0.6	9	-6	2.6	-1.4	2	-16
C[C@H]1[C@H](OC(=O)CCC(=O)NCc2ccc(C(=O)O)cc2)O[C@@H]2O[C@@]3(C)CC[C@H]4[C@H](C)CC[C@@H]1C24OO3	-5.0	0.4	10	3	nt	-5.4	30	-5
C#CCN(C)[C@H](C)Cc1ccccc1	-0.2	0.1	0	-8	3.4	1.4	-5	3
N#Cc1cc(F)c(N2CCNCC2)cc1Cl	5.0	1.7	-6	14	1.3	1.4	-10	2
O=C(COC(=O)Cc1ccccc1)Nc1cc(S(=O)(=O)N2CCOCC2)ccc1N1CCCC1	4.1	0.0	-3	0	0.6	-1.5	-1	-11
CN1CCc2cc3c(c4c2C1Cc1ccccc1-4)OCO3 (configuration not stated)	-12	-0.9	3	30	nt	4.1	88*	92*
CC(C)OS(C)(=O)=O	nt	-0.5	0	nt	2.9	0.0	2	nt
COc1ccc(C(=O)NCCN2CCN(C(=O)c3ccc(OC)c(OC)c3)CC2)cc1OC	2.6	-0.8	-5	-5	0.9	2.0	-2	-2
N#CCCn1cc(C(=O)Nc2ccc([N+](=O)[O-])cc2)c(-c2ccccc2)n1	-2.3	0.5	-8	-3	9.2	0.2	2	-1
CC1CCSP(=O)(Oc2ccccc2)O1 (configuration not stated)	-1.3	0.3	-2	-10	-3.7	-0.6	-6	-7
O=C1NC(=O)N(c2ccccc2F)C(=O)/C1=C/c1ccc(Sc2nc3ccccc3[nH]2)o1	nt	0.8	11	nt	7.2	0.7	1	nt
COc1ccc(-c2cc(=NCCC(=O)O)c3cc(C)ccc3o2)cc1	-7.4	nt	-2	-4	i	nt	nt	-4
OC1C2CN3CN(C2)CC1(c1ccccc1)C3 (configuration not stated)	-1.2	nt	4	-5	0.3	nt	nt	-3
CC12CCCCC1N(O)CN2O (configuration not stated)	-0.5	0.6	4	-23	7.1	0.6	0	8
CSc1nnc(OC(=O)N(C)C)n1-c1ccc(Cl)cc1	4.2	-1.2	-1	14	1.6	0.0	-2	5
COc1nc(C)nc(NC(=O)NS(=O)(=O)c2ccccc2Cl)n1	8.9	1.5	-2	-7	2.1	2.9	2	nt
O=c1c2ccccc2nc(CNCC2CCCO2)n1-c1ccc(F)cc1 (configuration not stated)	-0.5	1.0	-7	0	1.3	-2.1	-1	-3
CCn1cc(C(=O)c2ccccc2)c2ccccc21	-14	-0.2	-5	12	3.4	0.5	-6	97*
CC12CN3CC(C)(CN(C1)C31CCOCC1)C2=O	-4.1	0.4	-1	5	-1.5	2.4	0	-3
Cc1ccccc1-n1c(C)cc(/C=C2/C(=O)NC(=O)N(Cc3ccco3)C2=O)c1C	?	0.2	8	-1	3.6	5.4	-3	-10
CCn1c(P(C)(=O)O)nc2cc(NC(=O)c3ccccc3F)ccc21	4.6	-1.1	-1	-13	4.5	-3.1	3	-5
COc1ccc(CCNC(=O)COC(=O)Cc2ccccc2)cc1	0.5	-0.1	1	-10	1.8	-6.5	2	2
C/C(=N\N1CCCCC1)c1c(O)[nH]c(=O)[nH]c1=O	4.5	0.0	-3	-11	0.9	-0.8	1	2
COc1ccc(CCn2c(O)c(C=Nc3ccc(F)cc3)c(=O)[nH]c2=O)cc1OC	-0.7	-0.1	-4	-14	-58	15*	3	-1
CCOc1ccc(-c2cc(C)[n+](CCN3CCOCC3)c(-c3ccc(OCC)cc3)c2)cc1	0.9	-0.2	3	19	-109	1.9	34	-4
CN(C)c1ccc(CCN2CCOCC2)cc1	-2.5	0.9	-1	-7	-2.9	-2.6	0	-8
Cc1cccc(NC(=O)COC(=O)c2cc(C)n(C3CC3)c2C)c1	nt	1.7	0	nt	1.1	0.1	0	nt
CCCC(C)C1(CC)C(=O)NC(=O)N=C1N (configuration not stated)	2.1	-0.2	0	-16	5.0	-7.0	1	-8
Cc1nc2ccc(Cl)cn2c1P(=S)(N1CCOCC1)N1CCOCC1	-2.6	0.3	9	-5	-0.1	-1.0	1	-4
C/C=C/CC#N	nt	0.0	-2	nt	-0.8	1.1	-1	nt
CCOC(=O)c1cccc(-[n+]2c(-c3ccccc3)cc(-c3ccccc3)cc2-c2ccccc2)c1	1.0	0.1	-10	47	6.1	-2.4	135*	-5
CCc1c(C(=O)NN2C(=O)C3C4CCC(O4)C3C2=O)csc1C (configuration not stated)	?	0.3	0	3	-0.7	1.8	nt	-6
O=c1[nH]c(O)c(N=Nc2cc(C(F)(F)F)ccc2Cl)c(=O)[nH]1	0.8	-0.4	-2	-19	9.4	2.0	-1	2
CCOc1cc2c(cc1OCC)-n1cccc1C(c1cc(OC)ccc1F)NC2 (configuration not stated)	-3.5	-0.7	0	21	-0.7	2.3	-1	-6
CCOc1ccccc1-n1c(O)c(C=Nc2c(C)n(C)n(-c3ccccc3)c2=O)c(=O)[nH]c1=O	?	0.5	2	-11	6.8	4.7	-6	-19
O=C1N(c2cccc(Cl)c2)C(c2ccccc2)N2CCCN12 (configuration not stated)	3.2	-0.8	-9	-6	5.8	-1.1	-2	5
CN(C)C(=O)Oc1ccc(Br)cc1C(=O)Nc1ccc(F)c(Cl)c1	5.3	0.2	-2	29	5.9	-7.7	-2	-4

Part of the list above, showing only UCH37 DUB inh.
smiles | UCH37 DUB inh
CCOc1cc2c(cc1OCC)-n1cccc1C(c1cc(OC)ccc1F)NC2 (configuration not stated) | -0.7
CCOc1ccccc1-n1c(O)c(C=Nc2c(C)n(C)n(-c3ccccc3)c2=O)c(=O)[nH]c1=O | 6.8
Cc1nc2ccc(Cl)cn2c1P(=S)(N1CCOCC1)N1CCOCC1 | -0.1
CCCC(C)C1(CC)C(=O)NC(=O)N=C1N (configuration not stated) | 5.0

Later entries.
SMILES	RanGTP-Imp inh	A1 inh	Beta2AR agonist	T cruzi repl	UCH37 DUB inh	LANA-H2A inh	Beta apoptosis	Calb FLC
O=Cc1cn(Cc2ccc(Br)cc2)c2ccccc12	1.4	0.9	10	1	4.8	3.4	-6	-4
COc1cc(/C=C2\C(=O)NC(=O)N(c3ccc(C)cc3)C2=O)cc(OC)c1O	-0.8	-0.3	-6	-9	3.9	-3.8	0	46
CC1(C)C(c2ccccc2)=NC(c2cccnc2)=[N+]1[O-]	2.1	-0.5	1	-8	4.1	5.9	-7	-6
C/C(=N\NC(=S)Nc1ccccc1)c1c(O)n(C)c(=O)n(C)c1=O	1.0	-3.2	2	-6	11	6.3	-7	-20
O=c1cccc2n1CC1CC2CN(C(c2ccccc2)c2sc3ncnn3c2O)C1 (configuration not stated)	-2.3	-0.5	-7	0	3.7	-4.6	-1	-1
CN1C(=O)N(C)C(=O)C2(Cc3cc([N+](=O)[O-])ccc3N(C)C2)C1=O	1.7	0.8	0	-12	12	-1.8	3	1
CC(C)CCNC(=O)c1c(N)n(Cc2ccc3c(c2)OCO3)c2nc3ccccc3nc12	77*	-0.4	2	16	-355	14	-7	-4
Cc1cc(NC(=O)COC(=O)c2c(C)nn(Cc3ccccc3Cl)c2C)no1	-1.2	-0.9	-2	-1	2.6	0.0	-3	-6
O=c1[nH]c(=O)n(Cc2ccco2)c(O)c1C=NC1CCN(Cc2ccccc2)CC1	5.7	0.4	1	6	5.3	-5.9	nt	0
COc1cc2c(cc1OC)C(C(=O)N1CCC3(CC1)OCCO3)C(c1ccccc1F)N(C)C2=O (configuration not stated)	-2.0	-0.4	6	-2	-0.4	-2.6	1	?
C/C(=N\Nc1ccccc1)c1c(O)[nH]c(=O)[nH]c1=O	0.4	-0.1	5	32	6.5	6.1	nt	-21
CCOC(=O)N1CCN(C(C)C(=O)c2c[nH]c3ccccc23)CC1 (configuration not stated)	1.4	1.3	12	12	2.0	1.6	-20	-7
CCOc1cc2c(cc1OCC)-n1cccc1C(c1c(O)cccc1OC)NC2 (configuration not stated)	1.9	0.8	-5	13	4.8	3.7	-12	-17
